Compound activity as filed in PubChem BioAssay.
Ran FRET = inhibitors of Ran–importin-beta complex formation, primary screen, biochemical, CFP-Ran/YFP-importin-beta FRET, RCC1, cell-free (AID 434961). Regulator of chromosome condensation (Homo sapiens) + GTP-binding nuclear protein Ran …. CFP-Ran/YFP-importin-beta FRET, cell-free; active compounds read high. inhibition, %. actives 0.2% (n = 7,700);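 active means more than half of the replicate wells above 15% inhibition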;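 further: 0% = DMSO wells and 100% inhibition = RanGDP control wells on each plate; stock of unstated strength diluted about 400-fold; mean of two wells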
Numbers without * were called inactive. An excerpt. The share of hits here may be higher or lower than overall.

Start of the data: the first two compounds, to show the layout:
SMILES	Ran FRET
C[C@@H]1CN([C@@H](C)CO)C(=O)CCCn2cc(nn2)CO[C@H]1CN(C)C(=O)Oc1ccc2ccccc2c1	4.2
Cc1ccc(OC(=O)N(C)C[C@H]2OCc3cnnn3CCCC(=O)N([C@H](C)CO)C[C@@H]2C)cc1	7.9

This part in full (from the top)
SMILES	Ran FRET
C[C@@H]1CN([C@@H](C)CO)C(=O)CCCn2cc(nn2)CO[C@H]1CN(C)C(=O)Oc1ccc2ccccc2c1	4.2
Cc1ccc(OC(=O)N(C)C[C@H]2OCc3cnnn3CCCC(=O)N([C@H](C)CO)C[C@@H]2C)cc1	7.9
Cc1ccc(OC(=O)N(C)C[C@@H]2OCc3cnnn3CCCC(=O)N([C@H](C)CO)C[C@H]2C)cc1	-3.5
